# Sfp PPTase inh = inhibitors of Bacillus subtilis Sfp phosphopantetheinyl transferase | AID 1490 | Q9F4F7 | 310,000 compounds, 3.5% hits | Biochemical Sfp PPTase activity, qHTS | Potency, µM, without a hit: max response, negative = inhibition, usual class: inhibitors; active = well fitted inhibition curve with a large enough effect; inconclusive = small, poorly fitted or top-dose-only effect, or another doubt; inactive = no such curve, though single readings can be large or run the other way;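 note: the enzyme is Sfp with the accession as filed and its product quenches rhodamine fluorescence; potency is the fitted concentration of half-maximal effect; 0% = enzyme reaction without inhibitor and -100% = no enzyme wells; top concentration of the series not given in the record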
#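 Step 1, compound plus 15 nM Sfp-PPTase, 15 min, room temperature. Step 2, add rhodamine-CoA (5 uM) and BHQ-2-YbbR (12.5 uM). Step 3, read 525/598 nm fluorescence at 0 and 30 min.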
# ClpP mod = qHTS Assay for Activators of ClpP | purified B. subtilis ClpP, FRET peptide cleavage, 20 min | Potency, µM (series often up to 57.5 µM), for the others: at the highest dose activity change, negative = active | 340,000 compounds, 1.9% hits | AID 651965, 2013 | ATP-dependent Clp protease proteolytic subunit (Bacillus subtilis (strain 168)), P80244; active = well fitted falling curve with a large enough effect; inconclusive = small, poorly fitted or top-dose-only effect; inactive = no such curve, though single readings can be large or run the other way; note: potency is the fitted concentration of half-maximal effect; the source files actives as falling curves though it sought activators and does not explain the sign; nearly all actives have a fitted effect of over 65% in size; many hits overshoot -100%
# Target sequence (P80244 whole entry, looked up): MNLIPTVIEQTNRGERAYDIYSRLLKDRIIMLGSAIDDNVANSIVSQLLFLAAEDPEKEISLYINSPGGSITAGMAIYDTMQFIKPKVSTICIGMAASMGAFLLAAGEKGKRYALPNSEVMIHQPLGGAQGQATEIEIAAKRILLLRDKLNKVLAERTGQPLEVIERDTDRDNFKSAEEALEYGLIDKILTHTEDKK
#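 FRET quenching reversal measured ClpP activation: 10 microg/mL B. subtilis ClpP at pH 8 with the FRET-FV decapeptide, read at 430 nm after 320 nm excitation. The 20-min minus 0-min signal was scaled between DMSO/no-enzyme wells and ADEP (5.8 microM final).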
# Menin MLL FP FL = inhibitors of human menin-MLL interaction, wild-type MLL peptide; Fluorescence polarization, fluorescein-MLL peptide displacement from menin; FP activity change, % at 61.4 µM; 290,000 tested, under 10 active; AID 1766; inconclusive = falling polarisation curve, or a change in total fluorescence; inactive = total fluorescence flat and polarisation flat or rising; no compound was filed as active; the % refers to the polarisation; negative = inhibition;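 note: % of control where 0% means no effect; inhibitors lower the polarisation; unlabelled MLL peptide was the positive control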
# gsp ag = agonists of gsp mutant (McCune-Albright syndrome) | 340,000 compounds, 0.13% hits | Potency, µM (titrated, usually from 76.9 µM), for the others: at the highest dose activation (cAMP increase), most hits filed as activators | AID 624287 | gsp mutant cells, cAMP HTRF, 30 min; control for the full effect not named in the record; active = well fitted activation curve with a large enough effect; inconclusive = small, poorly fitted or top-dose-only effect, or another doubt; inactive = no such curve, though single readings can be large or run the other way; cell line not stated here;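 note: phosphodiesterase inhibitor Ro 20-1724 added with compounds to block cAMP breakdown; potency is the fitted concentration of half-maximal effect; nearly all actives have a fitted effect of over 60% in size; about a fifth of the inactives were tested at one dose only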
#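 Cells in DMEM/10% FBS with G418 were pretreated with compounds in DMSO plus […] (300 uM stock) for 30 min at 37C. cAMP was measured by HTRF (cAMP-d2 plus anti-cAMP antibody-K) after 30 min at room temperature.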
# PINK1 expr mod = PINK1 expression modulation; 410,000 compounds, 0.2% hits; PINK1 immunofluorescence, high-content cytometry, 24 h; Potency, µM (top dose mostly 76.6 µM), without a hit: at the highest dose activation (PINK1 increase), hits mostly activators; active = well fitted activation curve with a large enough effect; inconclusive = small, poorly fitted or top-dose-only effect; inactive = flat fitted curve, though single readings scatter; cell line not stated here;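 note: potency is the fitted concentration of half-maximal effect; % of control where 0% means no effect; nearly all actives have a fitted effect of over 65% in size; a mitochondrial uncoupler was the plate control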
#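 Cells are seeded, rested 12 hours, then given compound at five concentrations or DMSO for 24 hours. After fixation, blocking and antibody staining, PINK1 amount and mitochondrial localization are scored; CCCP serves as control.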
# gsp antag = antagonizes gsp, the McCune-Albright syndrome mutation; 340,000 compounds, 0.4% hits; gsp-mutant cells, cAMP HTRF, 30 min; control for the full effect not named in the record; Potency, µM (series often up to 76.9 µM), without a hit: top-dose activity change, negative = inhibition, hits mostly inhibitors; active = falling curve of any shape with a large fitted effect; inconclusive = falling curve, mostly with a smaller effect; inactive = flat or rising curve; cell line not stated here;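 note: intracellular cAMP measured with PDE inhibitor Ro 20-1724 present during compound exposure; potency is the fitted concentration of half-maximal effect; % is set by controls: 0 for no effect and ±100 for the full control effect; nearly all actives have a fitted effect of over 65% in size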
#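 HTRF cAMP read-out (cAMP-d2 plus anti-cAMP antibody-K in lysis buffer, 30 min RT). Before lysis, cells are exposed to compounds with […] for 30 min at 37C in DPBS containing Ca/Mg, BSA and Tween 20.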
# D2 agonist = agonists of human D2 dopamine receptor (beta-arrestin) | P14416 | DiscoveRx PathHunter D2 beta-arrestin, luminescence, 90 min; 100% = 57 uM dopamine signal | activation, % (no concentration beside the values) | 360,000 compounds, 0.084% hits; in the data active = activation above about 40%; inconclusive = about 15% to 40%; inactive = below about 15%; note: compound concentration not given in the record; the text of the record calls up to 30% inactive
# Target sequence (P14416 whole entry, looked up): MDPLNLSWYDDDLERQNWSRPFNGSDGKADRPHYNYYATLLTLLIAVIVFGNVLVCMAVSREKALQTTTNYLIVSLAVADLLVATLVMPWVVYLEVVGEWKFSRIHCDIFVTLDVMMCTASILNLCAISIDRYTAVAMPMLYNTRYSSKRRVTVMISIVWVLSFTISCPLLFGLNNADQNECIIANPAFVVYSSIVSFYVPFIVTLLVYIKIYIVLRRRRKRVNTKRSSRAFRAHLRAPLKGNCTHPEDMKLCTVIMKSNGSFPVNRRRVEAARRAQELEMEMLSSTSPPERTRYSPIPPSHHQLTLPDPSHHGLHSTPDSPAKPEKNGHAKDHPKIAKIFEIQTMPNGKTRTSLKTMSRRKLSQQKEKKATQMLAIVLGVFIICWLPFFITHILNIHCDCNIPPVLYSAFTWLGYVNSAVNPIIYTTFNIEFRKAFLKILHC
#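 DiscoveRx PathHunter D2 beta-arrestin cells (2,100/well) attached overnight, then compound-stimulated 90 min at 37 C in HBSS/10 mM HEPES/0.1% Tween-20 buffer; beta-galactosidase complementation read by luminescence after 1 h at ambient temperature. Dopamine 57 uM final (EC100) as control.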
# * marks the source's active call; other numbers are inactive results; ? = inconclusive; · = not tested or not shown; & = joins results of further samples; [ ] = remark or other dose. No enrichment for hits; overall some 5.1% were active at least once.
SMILES,Sfp PPTase inh,ClpP mod,Menin MLL FP FL,gsp ag,PINK1 expr mod,gsp antag,D2 agonist
CCC(C)(C)n1nnnc1C(c1cc2ccc(OC)cc2[nH]c1=O)N1CCc2ccccc21 (stereo not drawn),10µM*,-5.6%,1.6,-12%,0.1%[38.3 µM],-17%,-0.6
C=CCn1c(SCC(=O)N(C)C)nc2sc3c(c2c1=O)CCC3,11%,-2.0%,0.5,16%,0.3%,-10%,-5.0
Cc1cc(NC(=O)CNCC(c2ccccc2)N(C)C)c([N+](=O)[O-])cc1C (stereo not drawn),6%,0.6%,2.2,7%,2.2%,-4%,-12
CCOP(=O)(c1ccc(N(C)C)cc1)C(O)c1ccncc1 (stereo not drawn),16%,-4.0%,-1.2,2%,-0.1%,8%,-5.0
Cc1nn(Cc2ccccc2)c(C)c1NC(=O)CCCn1nc([N+](=O)[O-])c(Cl)c1C,5%,-2.9%,1.8,-3%,9.5%,5%,-1.0
Cn1nc(-c2ccccn2)nc2c(=O)n(C)c(=O)nc1-2,50µM*,-0.1%,-17,?,-1.6%,?,7.7
Cn1c(Cc2cccs2)nnc1SCC(=O)N1CCCc2ccccc21,15%,8.4%,4.1,-35%[inhibitor],-0.6%,7%,-2.7
CCCS(=O)(=O)NC(=O)C1(C)CCCN(C(=O)c2cc(C)on2)C1 (stereo not drawn),·,-2.3%,·,·,-0.7%,·,4.2
O=C1CN(C(=O)COc2ccc(F)cc2Cl)c2ccccc2N1,12%,0.5%,-1.8,-12%,-1.1%,1%,-0.1
COc1ccccc1N1CCN(C(=O)C2CCN(S(=O)(=O)c3ccc(F)cc3)CC2)CC1,-3%,1.1%,-0.4,-39%[inhibitor],4.3%[38.3 µM],-19%,-1.5
Cc1oc(=O)c(NC(=O)c2ccccc2)cc1C(N)=O,15%,·,-2.3,-3%[15.4 µM],0.1%,7%,4.2
O=C(CN1C(=O)CSc2ccccc21)NC1CCCC1,8%,·,3.7,-64%[inhibitor],1.5%,8%,-3.5
CC(C)(C)n1nc2c(c1NC(=O)c1ccccc1F)CS(=O)C2 (stereo not drawn),-3%,-0.3%,-2.6,-5%,1.2%,15%,4.7
COc1ccc(NC2CS(=O)(=O)CC2NCc2ccccc2)cc1 (stereo not drawn),12%,-6.4%,0.6,-46%[inhibitor],-2.8%,2%,-2.0
CN(C)S(=O)(=O)c1ccc(Cl)c(NC(=O)CN2CCN(Cc3ccc4c(c3)OCO4)CC2)c1,-2%,0.7%,-0.1,10%,1.1%,11µM*,-3.3
Cc1ccccc1S(=O)(=O)NC(=O)C1(C)CCN1C(=O)CC1CCCCC1 (stereo not drawn),·,-0.4%,·,·,1.5%,·,-1.4
CCN(CC)C(=N)/C(C#N)=N/Nc1ccccc1,10%,0.2%,2.0,-4%[15.4 µM],-1.8%,3%,-4.5
Cc1ccc(NC(=O)Nc2cccc(Cl)c2)c(C(=O)O)c1,9%,4.1%,5.9,?,0.1%,-12%,2.6
COc1ccccc1OCc1cc(C(=O)N2CCCC(OCc3cccnc3)C2)no1 (stereo not drawn),8%,0.3%,-1.6,-34%[inhibitor],0.1%,3%,-1.1
CC1(C)NC(=O)N(CC(O)CN2CCCC2)C1=O (stereo not drawn),21%,-0.7%,-3.5,14%,-1.1%,4%,1.5
CC(=O)Nc1ccc2c3c(ccc([N+](=O)[O-])c13)CC2,·,3.0%,·,33%,0.7%,·,0.5
CC1(C(=O)Nc2cccc(Oc3ccccc3)c2)CCN1Cc1ccccc1OC(F)F (stereo not drawn),·,-6.8%,·,·,2.1%,·,-5.0
NC(=O)c1nsc(C(=O)N(Cc2cccnc2)C(C(=O)NCc2ccccc2)c2ccc(O)cc2)c1N (stereo not drawn),8%,-3.4%,0.8,13%[15.4 µM],0.8%,-18%,5.5
N/C(=N\OC(=O)Cc1ccccc1)c1ccncc1,16%,1.4%,-4.3,-17%,3.9%,6%,0.1
COc1ccc(-n2c3c(cc(C#N)c2=O)C(=O)CCC3)cc1,4%,-9.3%,-0.6,2%[15.4 µM],-0.7%,-12%,0.0

# More records
SMILES,Sfp PPTase inh,ClpP mod,Menin MLL FP FL,gsp ag,PINK1 expr mod,gsp antag,D2 agonist
Cc1ccc(S(=O)(=O)N2CCC(=O)N(C(COCc3ccc(C(F)(F)F)cc3)C(C)C)CC2)cc1 (stereo not drawn),8%,0.6%,3.0,·,0.9%,-20%,-3.6
CC(=O)N/C(=N\c1nc(C)cc(C)n1)Nc1ccccc1Cl,1%,·,2.1,2%,3.0%,10%,-0.8
CCN1CCN(S(=O)(=O)c2c(C)cc(C)cc2C)CC1,6%,-1.5%,-5.7,3%,-1.0%,8%,-4.4
O=C(CN1C(=O)CCOc2ccccc21)Nc1ccc(Cl)c(S(=O)(=O)N2CCOCC2)c1,·,1.1%,·,-5%,2.1%,1%,-2.9
COc1ccc(CNC(=O)CCCn2ccc3cc(S(=O)(=O)N4CCCC4)ccc32)cc1,2%,-4.3%&-1.8%,-0.6,-3%,4.5%&2.2%,0%,11
O=C(NN=C1CCC(=NNC(=O)c2ccccn2)CC1)c1ccccn1,-19%,·,2.6,32%[15.4 µM],-0.3%,2%,-3.1
O=C(Nc1ccc(Oc2ccccc2)nc1)[C@H]1O[C@@H](n2ccc(=O)[nH]c2=O)[C@H](O)[C@@H]1O,·,1.7%,·,·,-0.1%,·,-4.1
CC(=O)Nc1cc(C)c2nc(NC(C)=O)sc2c1,0%,·,-1.4,-2%[15.4 µM],1.9%,7%,-0.1
CCCSC(=S)c1c(C)[nH]n(-c2ccccc2)c1=O,-3%,·,2.0,15%,?,?,-14
CC(NC(=O)CSc1nc2c(cc1C#N)CN(C)CC2)c1ccccc1 (stereo not drawn),56µM*,-9.8%,-15,-62%,?,-18%,2.3
Nc1ccc(Nc2nc(-c3cc4ccccc4oc3=O)cs2)cc1,7%,·,-2.4,0%[15.4 µM],0.8%,-20%,1.3
COc1cc2[nH]c(C(=O)N(C)Cc3ccccc3)cc2c(OC)c1OC,0%,-28%,1.1,16%,2.1%,-8%,-1.9
Nc1ccc(S(=O)(=O)Nc2nccc(/C=C/c3ccc([N+](=O)[O-])cc3)n2)cc1,16%,·,3.0,2%,-0.5%,4%,3.8
Cc1cc(NC(=S)N(Cc2cccc(Br)c2)CC2CCC(C(=O)O)CC2)ccc1Cl (stereo not drawn),-2%,-2.4%,-7.6,6%,-1.3%,28µM*,4.3
Cc1cccc(Cn2c(N(C)Cc3ccccc3)nc3c2c(=O)[nH]c(=O)n3C)c1,4%,1.1%,-0.7,22%,1.0%,0%,-1.3
CCOC(=O)CSc1nc(C)c(C(C)=O)cc1C#N,7%,1.0%,-3.3,0%,·,9%,-1.1
O=C1c2ccccc2N2C(=O)c3ccccc3C2N1O (stereo not drawn),10%,-1.3%,-1.1,-31%[inhibitor],-0.3%,3%,-1.6
C[C@@H](C(=O)NC1CCN(Cc2ccccc2)CC1)N1C(=O)N2CCc3c([nH]c4ccccc34)[C@@]2(C)C1=O,4%,-3.5%,5.7,·,1.1%,4%,-4.4
CCCOCC(O)CC(Cc1ccccc1)C(=O)NN (stereo not drawn),10%,-0.6%,-0.8,?,1.9%,7%,-2.5
CCNc1nc(NCC)nc(N/N=C/c2ccc(O)c(OC)c2)n1,-12%,·,0.4,-54%[inhibitor],0.7%,-8%,-1.5
COc1ccc(COC(=O)N/N=C(\C)CC(=O)Nc2ccc(Cl)cc2)cc1,17%,0.8%,1.3,4%,-3.3%,3%,1.6
CCn1c(SCC(=O)N(C)C2CCS(=O)(=O)C2)nnc1-c1ccccc1 (stereo not drawn),6%,·,-0.5,-33%,-1.4%,9%,2.0
CC1(C)CC(=O)C(/C=N/n2c(C(F)(F)F)nc3ccccc3c2=O)=C(O)C1,20%,-11%,1.7,13%,·,-12%,-4.3
CCCCn1c(N)c(N(C)C(=O)c2ccc(OCC3CCCO3)cc2)c(=O)[nH]c1=O (stereo not drawn),·,-6.8%,·,8%,-0.6%,13%,0.5
Nc1ccc2nn(-c3cccc4ccccc34)nc2c1,-3%,?,5.1,15%,6.0%,8%,4.3

# Further results follow:
SMILES,Sfp PPTase inh,ClpP mod,Menin MLL FP FL,gsp ag,PINK1 expr mod,gsp antag,D2 agonist
CCCCc1nnc(NC(=O)c2ccc(-n3cncn3)c([N+](=O)[O-])c2)s1,·,·,·,19%[15.4 µM],-3.7%,-16%,-3.2
CCOC(=O)/C(C#N)=C\c1cn(C)c2ccccc12,-8%,·,8.5,0%[15.4 µM],3.2%,·,0.4
COc1ccc(-c2ccc(NCCC3=CCCCC3)nn2)cc1OC,-2%,-3.0%,2.8,36%,?,8%,-0.8
Cc1c(Cl)ccc2c1NC(=O)[C@]21N[C@@H](CCC(N)=O)[C@H]2C(=O)N(c3ccc(F)cc3)C(=O)[C@H]21,-10%,6.2%,2.1,-16%,-0.7%,17%,-6.4
CSc1ccccc1NC(=O)CN(C)C(=O)c1cccc(S(=O)(=O)N(C)C)c1,17%,·,-0.9,?,0.4%,1%,-0.5
COC(=O)N1CCC[C@@]2(CCN(C(c3ccccc3)c3ccccc3)C2)C1,13%,·,2.8,·,2.5%,·,·
COc1ccc(/C=C/C=C2\NC(=S)NC2=O)cc1,16%,·,?,-6%,?,-14%,10
Cc1ccsc1/C=N/NC(=O)C1CC(=O)N(c2ccccc2)C1 (stereo not drawn),5%,1.0%,-0.3,-27%,6.2%,6%,-6.0
O=C1Nc2ccccc2C(=O)N2CCCCC12 (stereo not drawn),2%,-4.4%,-0.6,-8%,1.0%,12%,-4.8
CN(C)CCNCCCNc1c2ccccc2nc2cccc([N+](=O)[O-])c12,·,2.1%,·,4%,-1.3%,-11%,4.1
Cc1ccccc1NS(=O)(=O)c1ccc(C(=O)NN2CCCCC2)cc1,2%,1.9%,·,-6%,0.3%,3%,0.5
CCOC(=O)c1snc(C(=O)NC2CCCCC2)c1N,8%,?,4.4,-14%,-1.4%[38.3 µM],-5%,-3.7
